Autofluor counter: flagged as autofluorescent in microsphere protease counterscreen; fluorescence intensity (concentration not given with the values); actives 3.1% (n = 360,000); compound autofluorescence counterscreen, microsphere flow cytometry; active compounds read high;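 active = at least 3 SD above the mean of all compounds, about 16000 in these data; inconclusive = too few beads counted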;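 also: 100 nL of 1 mM stock went into each well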
PrP 5UTR inh: suppresses PrP 5' UTR mRNA reporter expression; cell-based PrP 5' UTR mRNA reporter, plate reader; inhibition, % (concentration not given with the values); actives 0.35% (n = 340,000);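 active = every replicate at 50% or more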;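 also: 0 = median of the neutral control wells; tested in H4 reporter cells; numbers are from one replicate; inactives centre near -14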
Mtb hypoxia inh: inhibitors of hypoxia-regulated fluorescent reporter in Mycobacterium tuberculosis | M. tuberculosis hypoxia-regulated fluorescent reporter, fluorescence | fluorescence inhibition, % (concentration not given with the values) | actives 0.1% (n = 300,000) | AID 1159583;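 active = 35 to 45% if threefold the growth effect, above 45% if 1.5-fold the growth effect; inactive = the rest, general growth blockers included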;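 also: wells of about 50 µL received 100 nL stock; 0% = vehicle wells and 100% = reference inhibitor wells; whole bacteria with a GFP reporter of the hypoxia response; strong numbers were not always called active; many hits fall short of the cut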
ugtP null kill: growth inhibition of S. aureus ugtP deletion strain. S. aureus RN4220 ugtP deletion, OD600 growth, 16 h; some inactives read as strong as hits. growth inhibition, % (no concentration beside the values). actives 0.54% (n = 330,000);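 active = z-score under -3 and OD600 up to 0.15 on both plates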;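 also: plate controls were untreated wells for no effect and antibiotic for full effect; wells of about 80 µL received 100 nL stock; the first replicate is given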
BJeLR lethal: BJeLR cell viability loss; inhibition, % (no concentration beside the values); actives 0.17% (n = 300,000); AID 1554; BJeLR (HRASV12) viability, CellTiter-Glo ATP luminescence, 48 h; reference of the scale not given here;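 active = replicate mean above 50%; inconclusive = above 50% but judged a plate artefact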;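 also: 50 nL library stock added to about 25 µL; numbers are from one replicate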
RN4220 kill: S. aureus RN4220 growth inhibition | OD600, 16 h | inhibition, % (test concentration not listed) | actives 0.33% (n = 330,000);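 active = z-score of -3 or lower and OD600 up to 0.18 on both plates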;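 also: plate controls were untreated cells for no effect and reference antibiotic for full effect; stock transfer was 100 nL into about 80 µL; one replicate is shown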
Mtb hypoxia inh growth: further read-out of Mtb hypoxia inh, marked with its call; growth inhibition, %; measured here: M. tuberculosis growth (absorbance);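 0% = vehicle and 100% = reference antibiotic; read after six days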
* marks the source's active call; other numbers are inactive results; ? = inconclusive; · = not tested or not shown; & = joins results of further samples.

Every second line gives: Autofluor counter, PrP 5UTR inh, Mtb hypoxia inh, Mtb hypoxia inh growth, ugtP null kill, BJeLR lethal, RN4220 kill
Clc1ccc(C2[C@H]3CN(CC4CCCCC4)[C@H](c4ccccc4)C34CC2(c2cccnc2)C4)cn1 (stereo partly drawn)
 : 5995, -16, ·, ·, ·, -9, ·
COc1ccc(Br)c(C(=O)OCC(=O)NC2CCCCCC2)c1
 : 3780, 1, 8, 4, 4, ·, 4.9
CC(NC(=O)c1ccc2c(c1)OCO2)c1ccccc1 (stereo not drawn)
 : 3117, -21, 24, 27, 0, -4, -0.3
CC(C)Cn1c(-c2nn(C)cc2Cl)n[nH]c1=S
 : 3121, -11, -1, 9, -8, -8, -0.8
COC(=O)c1ccc(C(NC(=O)OCc2ccccc2)/C(F)=C/[C@@H](C)C(=O)O)cc1 (stereo partly drawn)
 : 4362, -14, ·, ·, ·, 7, ·
O=C1Nc2ccccc2C12OCC1(CO2)COC2(OC1)C(=O)Nc1ccccc12 (stereo not drawn)
 : ?, -11, ·, ·, -1, -10, 3.2
COC(=O)Cc1c(C)nc2nc(Cc3ccccc3)[nH]n2c1=O
 : 4881, -11, ·, ·, 9, 8, 1.6
Cc1ccccc1N(C(=O)CNC(=O)c1cccs1)C(C(=O)NC1CCCC1)c1ccncc1 (stereo not drawn)
 : 6704, -3, 17, 8, 7, 1, 4.5
COC(=O)c1ccc(CSc2nc3c(cnn3-c3ccc(F)cc3)c(=O)[nH]2)o1
 : 10489, -31, 4, 7, -1, ·, 5.4
CN(CCC1CCCCO1)C(=O)c1cc(COc2ccc(F)cc2F)on1 (stereo not drawn)
 : 5219, -8, -2, -2, 0, 1, 4.3
Cn1nnc(CC[N+](C)(C)C)n1
 : 6340, 5, 5, 2, 4, 4, 2.9
Cc1cc(C)c(NC(=O)CN2C(=O)NC3(CCc4ccccc43)C2=O)c(Cl)c1 (stereo not drawn)
 : 6386, -17, 13, 4, -1, ·, 3.5
CCOC1OC(C(=O)N2CCN(Cc3ccccc3)CC2)=CC(c2ccccc2)C1CCCO (stereo not drawn)
 : ·, ·, 2&14, 6&8, 2&-17, ·, 4.2&3.4
CC(=O)N1CCCN(C(=O)c2cc(COc3c(F)cccc3F)on2)CC1
 : 6000, 4, -1, 8, -6, 0, -2.4
COc1cc(/C=N/NC(N)=O)ccc1OCC(=O)Nc1ccc(C)c(C)c1
 : 6849, 15, ·, ·, ·, 17, ·
COc1ccc(/C=C/C(=O)NCCCN2CCOCC2)cc1
 : 3877, ·, 1, 1, 10, -4, -0.7
O=C(COC(=O)c1ccc(Cl)nc1)NCc1ccc2c(c1)OCO2
 : 2583, -8, 7, 8, 4, -5, 0.1
Cc1c(-c2ccccc2)oc2c(C(=O)OCC(=O)Nc3ccc(C(N)=O)cc3)cccc2c1=O
 : 1944, -15, 2, 6, 2, 3, 2.5
CCC(Sc1nc(C)cc(C)n1)C(=O)NC1=NN=C(c2ccc(C)cc2)CS1 (stereo not drawn)
 : 10787, ·, -2, 12, 0, -8, -4.4
CN(C(=O)c1cc([N+](=O)[O-])ccc1NCc1cccnc1)c1ccccc1
 : 3493, -17, 2, -4, 9, -6, 3.1
CCOC(=O)C(=CNc1ccc(C#N)cc1)C(=O)OCC
 : 3318, 1, ·, ·, ·, -18, ·
CCCCCCCN1C(Nc2ccccc2)=NCC1Cc1ccccc1 (stereo not drawn)
 : ·, ·, -5, 3, -3, ·, -2.6
O=C(COC(=O)Cn1cnc2ccccc21)NCCc1ccccc1
 : 5114, -18, 11, -3, 1, -1, -0.1
ON=C(c1ccc(F)cc1)C1CC1c1c(F)cccc1Cl (stereo not drawn)
 : ·, ·, 10, 0, 8, ·, 2.6
CCC(=O)Nc1ccc2c(c1)nc(CN1CCCCC1)n2C
 : 3072, -18, 8, 2, 8, 5, 3.0
C=C(C)CNC(=S)N1CCN(C(c2ccccc2)c2ccccc2)CC1
 : 3965, -18, 7, 6, 5, 1, -0.7
NC(=O)c1ccccc1N=Cc1ccc2ccccc2c1
 : 2029, -55, 4, 2, 0, 18, 5.3
Cc1cc(C)nc(N/N=C/c2sccc2C)n1
 : 3146, -61, ·, ·, ·, 8, ·
O=C(Nc1ccc(S(=O)(=O)N2CCOCC2)cc1)c1ccccc1Br
 : 3949, -34, 1, 1, 1, 10, 4.4
O=C(NCCCn1ccnc1)c1cn(-c2ccccc2)nc1-c1ccccc1
 : 5484, -4, 0, 2, 1, -8, 3.2
COC(=O)c1cc(C(=O)OC)n(Cc2ccc(C)cc2)c1C
 : 4313, -5, -15, -1, 0, 4, 7.0
COc1ccc(-c2nn3cnnc3s2)cc1OC
 : ·, 6, -2, -14, 3, -7, 1.5
C=CCOC(=O)C1=C(C)NC(SCC(=O)N(CC)CC)=C(C#N)C1c1ccco1 (stereo not drawn)
 : 3664&3651, -10&-20, -4, -2, -5&-1, -6, -2.3&6.7
N#C/C(=C/c1ccc(OC(=O)c2ccc(Br)s2)cc1)c1nc2ccccc2[nH]1
 : 3821, -46, 1, -11, -4, ·, 3.1
Cc1cc(C)nc(N/N=C/c2ccc3c(c2)OCCO3)n1
 : 3709, -32, ·, ·, ·, -2, ·
NC(=O)C1=C[C@H](c2ccc(Br)cc2)C[C@H](OCc2ccc(CO)cc2)O1
 : 3543, -35, ·, ·, ·, 2, ·
COC(=O)CCS(=O)(=O)c1ccc(Cl)c(Cl)c1
 : ·, ·, -10, 3, -10, -3, -3.9
O=C(O)c1c[nH]c(=S)n1-c1ccc(F)cc1
 : 3349, -10, -6, 9, 2, 3, 10
CC(=O)c1cc2c(cc1NC(=O)CN1Cc3ccccc3C1=O)OCO2
 : 6109, -5, -10, 3, -1, -9, 1.1
O=C(NC(=S)Nc1cccc(S(=O)(=O)NC2=NCCC2)c1)c1cc(-c2ccco2)nc2ccccc12
 : 4554, -5, 13, -1, 0, 27, 2.5
COc1ccc(CN(C(=O)c2snc(C(N)=O)c2N)C(C)C(=O)NCc2ccc(F)cc2)cc1 (stereo not drawn)
 : 3779, 2, -18, -1, -3, -8, 1.3
O=C(COC(=O)c1ccccc1Cl)Nc1ccc2[nH]c(=O)[nH]c2c1
 : 7867, -28, 1, -10, 6, -2, 2.4
C=CCc1cccc(C=NNC(=O)CCC(=O)Nc2ccc(C)cc2)c1O
 : ·, ·, 3, 3, 1, ·, 4.6
COc1ccc(NC(=O)Cc2nnc(SCC(=O)c3ccccc3)n2C)cc1
 : 4897, -1, 5, -1, 6, -7, 2.0
O=C(Nc1cc(S(=O)(=O)N2CCOCC2)ccc1N1CCCCC1)c1cc(-c2ccccn2)nc2ccccc12
 : 3250, -1, 16, 3, -74, -1, 4.1
O=C(N1CCOCC1)N(Cc1ccco1)CC1CCCO1 (stereo not drawn)
 : 2675, -17, ·, ·, -4, 0, 0.3
Cn1c(SCC(=O)NCc2ccc3c(c2)OCO3)ncc(C(=O)Nc2ccc(F)cc2)c1=O
 : 5804, -6, 6, 4, 8, -2, 2.4
Cc1ccc(Nc2nc(-c3ccccc3)cs2)nc1
 : 3700, -44, 9, 6, 5, 0, -7.9
c1ccc(Oc2cc(-n3cncn3)ncn2)cc1
 : 8431, -19, 2, 2, 7, -5, 2.0
NC(N)=N/N=C/c1ccc(Cl)cc1Cl
 : 3806, -22, ·, ·, ·, 0, ·
CCc1nc2ccccc2nc1N1CCN(S(=O)(=O)c2ccc(Cl)cc2)CC1
 : 5167, -28, 7, -4, 8, -2, -4.4
Cc1ncc([N+](=O)[O-])n1CCOC(=O)NC(Nc1ccc(F)cc1)C(Cl)(Cl)Cl (stereo not drawn)
 : 4304, 2, 6, -4, 4, 11, 3.9
Clc1ccc(-n2nnnc2-c2cnc3ccccc3c2-c2ccccc2)cc1
 : 4494, -3, 9, 5, -5, 3, 1.4
COc1ccc(C(C)=O)cc1COC(=O)CCNS(=O)(=O)c1ccc(C)cc1
 : 4486, -13, 1, 0, 8, -8, 5.0
CCN1C(=O)c2ccc(C(=O)O)cc2C1=O
 : 3688, -9, ·, ·, 3, 0, 1.9
COc1ccc(N2CC(C(=O)N/N=C/c3ccc(C)cc3)CC2=O)cc1 (stereo not drawn)
 : 2667, -5, ·, ·, ·, 24, ·
CCn1c(=NC(=O)COc2ccccc2)sc2cccc(F)c21
 : 4490, -9, 11, 14, 14, -10, 11
CC(C)n1c(O)c(C=NCc2ccccc2)c(=O)[nH]c1=S
 : 5709, -10, 8, 13, 9, 2, 2.0
CNC(=O)CN1C(=O)NC(Cc2c[nH]c3ccccc23)C1=O (stereo not drawn)
 : 5105, 4, -2, -3, 2, -3, 3.5
Cc1cccc(-c2nnn(CC/C(N)=N/O)n2)c1
 : 5939, -63, 11, 11, -1, -2, 5.2

Continued:
Every second line gives: Autofluor counter, PrP 5UTR inh, Mtb hypoxia inh, Mtb hypoxia inh growth, ugtP null kill, BJeLR lethal, RN4220 kill
Cc1cccc(NC(=O)Cn2cnc3ccc(S(=O)(=O)N4CCC(C)CC4)cc3c2=O)n1
 : 3491, -27, ·, ·, -5, 6, -0.4
COc1ccc(OC)c(Nc2ncnc3ccc(Br)cc23)c1
 : 3712, 0, -2, -4, 6, 14, 5.6
COc1ccc(C=NNC(=O)CCn2cnc3ccccc32)cc1
 : ·, ·, 0, 13, 2, ·, 0.6
Cc1ccc(NC(=O)c2cc(C(=O)c3cc(Cl)ccc3O)cn(-c3ccc(C)cc3)c2=O)cc1
 : 2496, -6, 3, 0, -14, 6, -4.3
Cc1c(-c2ccccc2)nc(N)c(C#N)c1-c1cccs1
 : 5746, -33, 6, 9, 1, -3, 3.1
CC(C)c1nc(SCC(=O)c2ccc(F)cc2)c2ccccc2n1
 : 3591, -7, 14, 7, 8, -22, 4.5
CCCCCCCCC#Cc1nc(C)ccc1OC
 : 3620, 33, 6, 8, 37, ·, 5.5
COC(C#CCCN(C)C)(c1ccccc1)c1ccccc1
 : 2011, -2, 15, 1, 11, 4, 2.8
CCOC(=O)CNC(=O)c1sc(NC(=O)c2ccccc2)nc1C
 : 3704, -7, 4, 2, 0, 1, 2.9
C=CCNc1nc2ccccc2nc1NS(=O)(=O)c1ccc(Cl)cc1
 : 3333, -40, 5, 5, -13, -3, 6.4
COc1cccc(-c2nn(-c3ccc(C)cc3)cc2C(=O)NCC2CCCO2)c1 (stereo not drawn)
 : ?, -30, -4, -3, 1, 7, 0.7
O=C(CSc1nc(=O)n(CCCN2CCOCC2)c2c1CCCC2)Nc1ccc(F)c(F)c1
 : 5570, -18, 5, 4, 0, 4, 2.3
CCC(NC(=O)CCc1nnc(-c2cc(C)on2)o1)C12CC3CC(CC(C3)C1)C2 (stereo not drawn)
 : 6739, -17, 4, -15, -3, -2, 3.3
Cc1ccc(C(=O)NC2CCCCCCC2)cc1S(=O)(=O)N1CCOCC1
 : 7003, -57, 1, 7, 6, ·, 4.9
CC(C)CCOCC1CC2(CC(C)(c3csc(N)n3)OC2=O)C(=O)O1 (stereo not drawn)
 : 3026, -37, 0, 1, -4, 6, -11
Cc1cnc(C(=O)OCC(=O)Nc2ccc(Cl)cc2Cl)cn1
 : ?, -22, 0, 0, -1, 3, -14
CCCCCCSc1ccc(C2C3C(=O)N(C)C(=O)C3[C@]3(C(=O)OC)CCCCN23)cc1 (stereo partly drawn)
 : ·, ·, 20&-1, 7&7, 20&23, ·, -4.6&-1.3

Another view of part of the listing above.
molecule	Autofluor counter	PrP 5UTR inh	Mtb hypoxia inh	Mtb hypoxia inh growth	ugtP null kill	BJeLR lethal	RN4220 kill
Cn1c(SCC(=O)NCc2ccc3c(c2)OCO3)ncc(C(=O)Nc2ccc(F)cc2)c1=O	5804	-6	6	4	8	-2	2.4
Cc1cccc(NC(=O)Cn2cnc3ccc(S(=O)(=O)N4CCC(C)CC4)cc3c2=O)n1	3491	-27	·	·	-5	6	-0.4
CCn1c(=NC(=O)COc2ccccc2)sc2cccc(F)c21	4490	-9	11	14	14	-10	11
CC(=O)N1CCCN(C(=O)c2cc(COc3c(F)cccc3F)on2)CC1	6000	4	-1	8	-6	0	-2.4
Cc1c(-c2ccccc2)oc2c(C(=O)OCC(=O)Nc3ccc(C(N)=O)cc3)cccc2c1=O	1944	-15	2	6	2	3	2.5
CCC(NC(=O)CCc1nnc(-c2cc(C)on2)o1)C12CC3CC(CC(C3)C1)C2 (stereo not drawn)	6739	-17	4	-15	-3	-2	3.3
Cc1ccc(Nc2nc(-c3ccccc3)cs2)nc1	3700	-44	9	6	5	0	-7.9

Compound activity: PubChem BioAssay, several laboratories
